# Assay outcomes (PubChem BioAssay)
# Sfp PPTase inh – blocks B. subtilis Sfp PPTase activity; Q9F4F7; Biochemical Sfp PPTase activity, qHTS; Potency, µM, for the others: max response, negative = inhibition, usual class: inhibitors; 3.5% of 310,000 active; active = well fitted inhibition curve with a large enough effect; inconclusive = small, poorly fitted or top-dose-only effect, or another doubt; inactive = no such curve, though single readings can be large or run the other way;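 also: the enzyme is Sfp with the accession as filed and its product quenches rhodamine fluorescence; potency is read from the fitted curve at half-maximal effect; 0% = enzyme reaction without inhibitor and -100% = no enzyme wells; top concentration of the series not given in the record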
#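 Step 1, compound plus 15 nM Sfp-PPTase, 15 min, room temperature. Step 2, add rhodamine-CoA (5 uM) and BHQ-2-YbbR (12.5 uM). Step 3, read 525/598 nm fluorescence at 0 and 30 min.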
# TRPV1 potentiator – potentiators of human vanilloid receptor 1 (TRPV1); potentiation, % at 8.33 µM; 0.02% of 320,000 active; TRPV1-expressing cells, Fluo-8 calcium influx, capsaicin EC20 potentiation; host cell line not named in the record; control for the full effect not named in the record; active means potentiation above 80%; inconclusive means 30% to 80%; inactive means below 30%; also: 0% is about no effect
#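 TRPV1-expressing cells were cultured overnight at 35.5C and loaded with Fluo-8 calcium dye for 40 to 90 min at room temperature. After a 10 s baseline, compound was added and calcium influx was read kinetically for 3 min (ex 480/em 520 nm).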
# D2 potentiator – potentiates the human D2 dopamine receptor allosterically | DiscoveRx D2 beta-arrestin cells, luminescence, 90 min; 100% = 57 uM dopamine signal | potentiation, % (concentration not given with the values) | 0.23% of 360,000 active; active = potentiation of 50% or more; inconclusive = 30% to 50%; inactive = 30% or less;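 also: compound concentration not given in the record; tested on top of an EC20 dose of dopamine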
# Target sequence (P14416 whole entry, looked up): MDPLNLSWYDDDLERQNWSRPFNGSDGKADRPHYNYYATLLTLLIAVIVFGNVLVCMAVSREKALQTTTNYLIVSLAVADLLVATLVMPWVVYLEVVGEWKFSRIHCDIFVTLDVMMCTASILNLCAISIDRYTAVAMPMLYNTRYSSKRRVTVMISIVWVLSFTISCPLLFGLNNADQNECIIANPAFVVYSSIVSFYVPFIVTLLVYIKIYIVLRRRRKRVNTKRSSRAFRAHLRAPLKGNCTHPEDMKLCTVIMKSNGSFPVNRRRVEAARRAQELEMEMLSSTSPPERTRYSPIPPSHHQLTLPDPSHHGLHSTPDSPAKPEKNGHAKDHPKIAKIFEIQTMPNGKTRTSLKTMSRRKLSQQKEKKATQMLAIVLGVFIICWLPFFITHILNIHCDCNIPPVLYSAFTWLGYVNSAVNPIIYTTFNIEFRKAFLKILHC
#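 PathHunter beta-arrestin assay in DiscoveRx D2 cells. Compounds were added with an EC20 of dopamine (50 nM final) for 90 min at 37 deg C. Luminescence was read 1 h after detection reagent, with 57 uM dopamine as the EC100 control.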
# ClpP mod – qHTS Assay for Activators of ClpP; ATP-dependent Clp protease proteolytic subunit (Bacillus subtilis (strain 168)), P80244; purified B. subtilis ClpP, FRET peptide cleavage, 20 min; Potency, µM (titrated, usually from 57.5 µM), for inactives: at the top dose activity change, negative = active; 1.9% of 340,000 active; active = well fitted falling curve with a large enough effect; inconclusive = small, poorly fitted or top-dose-only effect; inactive = no such curve, though single readings can be large or run the other way; also: potency is read from the fitted curve at half-maximal effect; the source files actives as falling curves though it sought activators and does not explain the sign; nearly all actives have a fitted effect of over 65% in size; many hits overshoot -100%
# Target sequence (P80244 whole entry, looked up): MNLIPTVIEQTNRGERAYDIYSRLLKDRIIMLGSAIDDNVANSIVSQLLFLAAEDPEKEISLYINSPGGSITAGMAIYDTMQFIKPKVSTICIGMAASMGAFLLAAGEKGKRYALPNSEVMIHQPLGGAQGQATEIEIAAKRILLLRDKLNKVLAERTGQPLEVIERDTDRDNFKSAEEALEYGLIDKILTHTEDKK
#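 Buffer: 100 mM Tris/HCl pH8, 100 mM KCl, 0.05% low protease BSA, 2.5% glycerol, 0.01% Tween-20. ClpP 10 microg/mL final; 20 min RT; delta FRET normalized to ADEP and DMSO controls.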
# gsp ag – agonists of gsp mutant (McCune-Albright syndrome); gsp mutant cells, cAMP HTRF, 30 min; control for the full effect not named in the record; Potency, µM (series often up to 76.9 µM), for the others: top-dose activation (cAMP increase), hits mostly activators; 0.13% of 340,000 active; AID 624287; active = well fitted activation curve with a large enough effect; inconclusive = small, poorly fitted or top-dose-only effect, or another doubt; inactive = no such curve, though single readings can be large or run the other way; cell line not stated here;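 also: phosphodiesterase inhibitor Ro 20-1724 added with compounds to block cAMP breakdown; potency is read from the fitted curve at half-maximal effect; nearly all actives have a fitted effect of over 60% in size; about a fifth of the inactives were tested at one dose only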
#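 Cells stably selected in G418 were plated at 2000/well, grown 16-24 hr, then given compounds in DMSO with the PDE inhibitor […] (300 uM solution added) for 30 min at 37C; cAMP was read by HTRF.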
# gsp antag – gsp mutant antagonism | gsp-mutant cells, cAMP HTRF, 30 min; control for the full effect not named in the record | Potency, µM (top dose mostly 76.9 µM), for inactives: top-dose activity change, negative = inhibition, hits mostly inhibitors | 0.4% of 340,000 active | AID 624288; active = falling curve of any shape with a large fitted effect; inconclusive = falling curve, mostly with a smaller effect; inactive = flat or rising curve; cell line not stated here;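 also: intracellular cAMP measured with PDE inhibitor Ro 20-1724 present during compound exposure; potency is read from the fitted curve at half-maximal effect; % is scaled to controls: 0 for no effect and ±100 for the full control effect; nearly all actives have a fitted effect of over 65% in size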
#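 HTRF cAMP read-out (cAMP-d2 plus anti-cAMP antibody-K in lysis buffer, 30 min RT). Before lysis, cells are exposed to compounds with […] for 30 min at 37C in DPBS containing Ca/Mg, BSA and Tween 20.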
# Menin MLL FP FL – inhibitors of human menin-MLL interaction, wild-type MLL peptide | Fluorescence polarization, fluorescein-MLL peptide displacement from menin | FP activity change, % at 61.4 µM | 290,000 tested, under 10 active | AID 1766; inconclusive = falling polarisation curve, or a change in total fluorescence; inactive = total fluorescence flat and polarisation flat or rising; no compound was filed as active; the % refers to the polarisation; negative = inhibition;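 also: % of control where 0% means no effect; inhibitors lower the polarisation; unlabelled MLL peptide was the positive control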
# * hit, by the source's call; ? = inconclusive; / = no result given; [ ] = remark or other dose. Random draw from the library (roughly 5.1% active in at least one column).
smiles	TRPV1 potentiator	gsp ag	ClpP mod	gsp antag	D2 potentiator	Sfp PPTase inh	Menin MLL FP FL
CC1C(=O)N2CCCc3cc(S(=O)(=O)N(C)Cc4ccccc4)cc1c32 (stereo unspecified)	-15	-1%	-4.7%	0%	0	12%	7.7
O=C(c1cccs1)N1CCCc2ccccc21	8	-14%	-0.4%	-2%	3	14%	0.3
C=CCn1c(SCc2cccc(OC)c2)nnc1-c1ccncc1	-12	-9%	-1.4%	-4%	-2	17%	-0.4
Cc1ccc(NC(=O)COc2ccccc2C(=O)NCCN(C)C)cc1	3	/	/	/	/	-27%	0.7
Cc1c(C)c2ccc(OCC(=O)N3CCOCC3)c(C)c2oc1=O	-3	-19%	/	-2%	1	18%	-2.3
CCCn1c(=NC(=O)CCS(=O)(=O)c2ccccc2)sc2cc(S(N)(=O)=O)ccc21	22	-2%	-10%	?	-25	/	/
CC1=Nn2c(nc(-c3ccccc3)c2-c2ccccc2)NC(=O)C1Br (stereo unspecified)	0	-30%	?	-4%	8	3%	3.0
CCN(CC(=O)Nc1ccccc1OC)CC(=O)Nc1ccccc1-c1ccccc1	-12	-5%[15.4 µM]	/	-2%	1	35µM*	0.0
CCOC(=O)CNC(=O)Cn1cnc2c(nnn2-c2cccc(OC)c2)c1=O	2	?	-5.9%	9%	-5	10%	3.8
O=C(Oc1ccc2ccccc2c1)c1cncc(Br)c1	-19	-25%	1.5%	1%	1	6%	-1.5
O=c1c2ccccc2nc(SCc2cn3ccsc3n2)n1-c1ccc(F)cc1	-2	0%	-4.2%	14%	-7	-1%	8.0
COc1ccc(CC(=O)Oc2ccc(Br)cc2F)cc1S(=O)(=O)N1CCOCC1	1	9%	-3.8%	3%	-16	/	/
Cc1ccc(NC(=O)CCN2C(=O)C3CCCCC3C2=O)cc1[N+](=O)[O-] (stereo unspecified)	-1	-5%[15.4 µM]	/	3%	-10	/	/
CCCC1CC(c2csc(N)n2)CCO1 (stereo unspecified)	0	?	-1.6%	-5%	8	0%	4.4
O=C(c1ccc(Oc2ccc([N+](=O)[O-])cc2Cl)cc1)N1CCCC1	2	-7%[15.4 µM]	/	11µM*	6	?	-0.3
CN(CC(=O)Nc1ccccc1Br)C(=O)c1ccncc1	4	0%	1.1%	-6%	-20	-1%	/
O=C(CCCCCCN1C(=O)c2ccccc2C1=O)Nc1nccs1	5	-6%	-1.1%	8%	-2	7%	1.5
CCOc1ccc(NC(=O)CCN2CCN(S(=O)(=O)c3cc(Cl)ccc3OC)CC2)cc1	23	5%	28µM*	-2%	0	8%	1.9
CN(C)C(=O)c1cn(-c2ccccc2)nc1-c1cccs1	-12	2%	-10%	-3%	-1	5%	-0.7
NS(=O)(=O)c1ccc(N2N=C(c3ccccc3)CC2c2cccc(Cl)c2)cc1 (stereo unspecified)	/	/	3.7%	-10%	-5	/	/
CCOc1ccc(N=C2NC(=O)S/C2=C\c2ccc(OC)cc2)cc1	-4	-39%[inhibitor]	-1.6%	2%	-13	10%	-0.8
Cn1c(/N=C/c2ccc3c(c2)OCO3)nc2ccccc21	4	?	-5.9%	5%	3	3%	-0.6
CC1CN(c2oc(Cc3cccc4ccccc34)nc2C#N)CC(C)O1 (stereo unspecified)	/	4%	-1.9%	-5%	17	-15%	3.2
COc1cccc(C2C(C(=O)c3cccs3)=C(O)C(=O)N2CCN2CCOCC2)c1 (stereo unspecified)	-11	30%	3.0%	5%	-11	17%	-2.3
CCN(CC(=O)Nc1ccccc1C(F)(F)F)C(=O)CN1C(=O)NC(C)(c2ccc3ccccc3c2)C1=O (stereo unspecified)	/	-11%	-0.3%	8%	0	/	/
CCC1(C)NC(=O)N(CC(=O)N2CCC(Cc3ccccc3)CC2)C1=O (stereo unspecified)	-7	5%	-1.4%	1%	-5	/	/
O=C(Cc1n[nH]c(=O)c2ccccc12)OCC(=O)N(Cc1ccccc1)Cc1ccccc1	-27	3%	-1.2%	-28%	-20	-7%	8.5
Cc1ccc(Oc2ccccc2NC(=O)C2=COCCO2)cc1	2	9%[15.4 µM]	-1.2%	-5%	-3	/	/
Cc1cc(C)c(C#N)c(SCC(=O)Nc2ccc(S(=O)(=O)Nc3onc(C)c3C)cc2)n1	10	18µM*	-1.2%	5%	-12	21%	-1.0
O=C(Cc1ccc(Cl)cc1)NCc1nc(-c2ccccc2)no1	-15	/	/	/	/	2%	0.8
COc1cc(CNC2CCCCCCC2)c(Br)cc1OCCO	12	-2%	2.9%	8%	-5	7%	2.6
COc1ccccc1C(=O)COC(=O)CSCC(=O)Nc1cc(C)on1	-7	-5%[15.4 µM]	0.1%	4%	-8	/	/
CCOc1cc(NC(=S)NCC2CCCO2)c(OCC)cc1NC(=O)CC(C)C (stereo unspecified)	-2	16%[15.4 µM]	-0.7%	-3%	2	8%	0.1
CC12CCC(C(=O)Nc3nc4ccccc4s3)(OC1=O)C2(C)C (stereo unspecified)	-1	?	/	-4%	-4	-11%	-0.5
Cc1ccsc1C(=O)NN=C1CCCCCC1	-2	-4%	-1.6%	11%	-11	15%	-0.5
CCOc1ccccc1/C=N/NC(=O)C[n+]1ccccc1	10	10%	18%	10%	-19	/	/
CCC(C)NCC(=O)Nc1ccc([N+](=O)[O-])cc1C(=O)Nc1ccccc1F (stereo unspecified)	6	?	-1.3%	-30%	4	9%	0.2
CCN(Cc1ccccc1)S(=O)(=O)c1ccc(C(=O)N(CCCN(C)C)c2nc3c(F)cccc3s2)cc1	1	-4%	-1.0%	5%	-18	79µM*	-0.7
COC(=O)c1c(NC(C)=O)sc(C(=O)Nc2ccccc2C)c1C	9	-12%	-0.9%	13%	-2	7%	3.9
O=c1c2ccccc2ncn1CCc1ccncc1	/	-42%[inhibitor]	-8.7%	1%	-11	/	/
COCC(C)n1c(C)cc(C(=O)CSc2ccc(NC(C)=O)cc2)c1C (stereo unspecified)	-4	15%	1.1%	-13%	-8	-3%	1.5
O=C(COC(=O)COc1ccccc1[N+](=O)[O-])Nc1ccc2c(c1)OCO2	/	-23%	/	-1%	-24	/	/
CC(C)(C)OC(=O)N1CCC(Cc2cc(-c3ccccc3)no2)(C(=O)O)CC1	25	/	0.9%	-12%	0	13%	1.5
Cc1ccccc1NC(=O)/C(=C/c1ccco1)c1ccccc1	-2	-44%[inhibitor]	-2.7%	-12%	-8	56µM*	3.1
O=C(NCCc1ccccc1)C1CCC(=O)N(Cc2ccc(Cl)cc2)C1 (stereo unspecified)	4	-80%[inhibitor]	-2.3%	5%	12	9%	/
O=C(NC(=O)N1CCSCC1)c1c(Cl)cccc1Cl	6	15%	/	3%	0	17%	0.0
Cc1ccccc1C(=O)Nc1cccc(C(=O)Nc2ccccc2C(=O)O)c1	?	-24%	2.2%	-10%	18	33%[activator]	2.0
O=C(Nc1cc(C(F)(F)F)ccc1N1CCCCC1)c1cccc([N+](=O)[O-])c1	-13	-19%	1.5%	?	-10	0%	1.6
Cc1cccc(N=C2CCCC2C(=O)Nc2cccc(C)c2C)c1C (stereo unspecified)	/	17%	/	11%	2	/	/
Cc1cccc(OCC(=O)Nc2ccccc2F)c1	-13	?	/	5%	-6	1%	2.8
O=C(c1cccs1)N1CCC(c2nc(-c3ccc(S(=O)(=O)N4CCOCC4)cc3)no2)CC1	3	-10%	-2.1%	?	-10	6%	1.0
CSCCC(=O)N1CCCC(CNC(=O)c2ccc(-c3ccccc3)cc2)C1 (stereo unspecified)	6	-11%	-1.7%	3%	-10	0%	-2.9
CCOC(=O)c1cnn(-c2ncnc3sc4c(c23)CCC4)c1N	-5	1%	-22%	-2%	-9	15%	-0.4
NNC(=O)c1ccccc1CO	/	/	1.1%	11%	-18	/	/
Cn1c(C(=O)OC(C(=O)NC(C)(C)C)c2cccnc2)cc2sccc21 (stereo unspecified)	-7	20%[15.4 µM]	/	/	-3	7%	0.2
Cc1ccc(-c2cc(-c3ccccc3)nc(N/N=C/c3cccnc3)n2)cc1	/	8%	-22%	-19%	-5	/	/
CCOC(=O)c1csc(NC(=O)CN2CCCCC2)n1	6	1%	-0.9%	14%	-7	-3%	-2.5
O=C(Cn1cnc2cc([N+](=O)[O-])ccc2c1=O)Nc1ccc2c(c1)CCC2	26	-32%[inhibitor]	-0.2%	9%	7	18%	6.2
Cc1nn(-c2ccccc2)c2c1c(C)c(CCC(=O)N1CCOCC1)c(=O)n2C	-15	-14%	-23%	-11%	-1	0%	8.6
CCOC(=O)C1CCN(C(=O)c2cccc(S(=O)(=O)Nc3ccc(C)cc3C)c2)CC1	-12	3%[15.4 µM]	/	/	-4	-5%	-2.0

# New compounds follow.
smiles	TRPV1 potentiator	gsp ag	ClpP mod	gsp antag	D2 potentiator	Sfp PPTase inh	Menin MLL FP FL
COc1cc2cc(CCCOC(=O)c3cccc(Br)c3)oc(=O)c2cc1OC	-15	0%	-6.3%	-1%	-12	/	/
S=C(NCCNC(=S)Nc1ccccc1Cl)Nc1ccccc1Cl	7	-3%	/	-9%	4	2%	1.7
COc1ccc2[nH]c3c(NCCC4=CCCCC4)ncnc3c2c1	-1	-7%[15.4 µM]	/	28µM*	-12	-16%	-4.6
O=C(O)C1c2ccccc2Cc2ccccc21	/	9%	-14%	/	-8	/	/
Cc1cccc(NCc2nc3ccccc3n2C)c1	0	-5%	2.5%	-7%	-9	-9%	3.5
COC(=O)c1c(C)[nH]c(C)c1C(C)=O	2	-8%[15.4 µM]	/	13%	0	10%	-0.7
Cc1ccc(CNC(=O)Cc2ccc(-n3cccc3)cc2)cc1	-3	-28%	1.2%	10%	-5	-1%	4.4
CCC(=O)Nc1c2c(nn1-c1cccc(Cl)c1)CSC2	12	-5%	-4.2%	7%	-2	-9%	2.7

# Marked active in gsp ag (from the list above):
SMILES,gsp ag,gsp antag,D2 potentiator,Sfp PPTase inh,Menin MLL FP FL
Cc1cc(C)c(C#N)c(SCC(=O)Nc2ccc(S(=O)(=O)Nc3onc(C)c3C)cc2)n1,18µM*,5%,-12,21%,-1.0
